HIV Env fusion: blocks HIV Env-driven cell-cell fusion. HeLa-JRFL Env/CEM21 cell fusion, luciferase. actives 1.1% (n = 360,000). AID 651610. inhibition, % at 12.3 µM;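 active means mean replicate inhibition score of at least 50 and every replicate individually at or above 50; inconclusive means only one of the two criteria met; inactive means mean below 50 and not all replicates reaching 50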;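 further: 0% = plate neutral controls and 100% = maraviroc near 300 nM; one replicate is shown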
PABP FP inh: blocks human PABP binding to poly(A) RNA; inhibition, % at 35 µM; actives 1% (n = 290,000); fluorescence polarization; AID 2014;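 active means 50% or more with normal probe brightness, or confirmed in later tests; inconclusive means above 50% with abnormal brightness, or retests that disagree; inactive means below 50% or failed in later tests; about a fifth of its hits are not listed in these tables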;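 further: calls also rest on retests at 20 µM and on dose response follow-up; controls were probe without protein and protein plus probe with vehicle; some compounds called inactive have numbers as strong as hits; many hits fall short of the cut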
Target sequence (P11940 whole entry, looked up): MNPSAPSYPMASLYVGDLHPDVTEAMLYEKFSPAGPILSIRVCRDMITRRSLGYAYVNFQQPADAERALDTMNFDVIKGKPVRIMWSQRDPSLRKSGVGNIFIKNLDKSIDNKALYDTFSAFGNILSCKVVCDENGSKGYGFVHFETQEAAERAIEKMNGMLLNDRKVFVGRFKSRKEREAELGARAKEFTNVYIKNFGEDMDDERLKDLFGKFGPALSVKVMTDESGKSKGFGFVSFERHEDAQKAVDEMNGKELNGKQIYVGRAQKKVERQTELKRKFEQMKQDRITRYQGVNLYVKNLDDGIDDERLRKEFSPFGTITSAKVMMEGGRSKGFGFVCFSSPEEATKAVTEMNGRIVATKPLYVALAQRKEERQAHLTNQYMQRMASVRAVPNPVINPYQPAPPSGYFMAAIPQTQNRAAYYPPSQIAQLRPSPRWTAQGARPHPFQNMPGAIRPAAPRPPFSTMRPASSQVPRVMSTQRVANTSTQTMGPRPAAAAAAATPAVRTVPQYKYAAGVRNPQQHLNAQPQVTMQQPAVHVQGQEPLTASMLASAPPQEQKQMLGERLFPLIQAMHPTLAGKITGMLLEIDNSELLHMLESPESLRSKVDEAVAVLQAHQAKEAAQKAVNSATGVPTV
eIF4H inh: inhibitors of RNA binding by human eIF4H. Q15056. eIF4H fluorescence polarization binding assay. inhibition, % at 35 µM. actives 0.94% (n = 290,000). AID 2012;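 active means 50% or more with normal probe brightness, or confirmed in later tests; inconclusive means above 50% with abnormal brightness, or retests that disagree; inactive means below 50% or failed in later tests; about a fifth of its hits are not listed in these tables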;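 further: calls also rest on retests at 20 µM and on dose response follow-up; 0% = protein and probe with vehicle and 100% = probe without protein; strong numbers were not always called active; many hits fall short of the cut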
Yeast UUG start: yeast start codon fidelity modulation; S. cerevisiae UUG-firefly luciferase reporter, luminescence/redox ratio; activity score, % at 18.7 µM; actives 0.13% (n = 350,000);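 active means replicate mean at a twofold rise or more, about +100% in these data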;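 further: firefly luciferase made from a UUG start codon reports start codon fidelity; reporter light over untreated wells divided by growth signal over untreated wells; some hits fall short of that in this replicate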
MT1-MMP act inh: blocks activation of human MT1-MMP; HT1080 RFP-PRO-GFP cells, GFP/RFP ratio fluorescence, overnight; percent of plate control window, DMSO zero; actives 0.061% (n = 360,000); AID 651647; P50281; GFP/RFP ratio change, % at 20 µM;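 active means GFP/RFP ratio change of at least 30% with cell ATP level not reduced by more than half and red fluorescence within 50% of control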; further: strong numbers were not always called active
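Read-out: GFP/RFP fluorescence ratio; Test system: RFP-PRO-GFP reporter HT1080 cells; Compound dosing: single-point 20 µM compound, 1% DMSO; Times: overnight compound exposure at 37 °C.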
Rce1 inhib: yeast Ras-converting enzyme inhibition | Q03530 | yeast membranes, quenched prenylated peptide cleavage fluorescence | calls only | actives 0.27% (n = 290,000);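 active means fall in fluorescence gain of 50% or more versus controls, with final raw signal at or below 3038400; inconclusive means same 50% fall but final raw signal above 3038400; inactive means fall in fluorescence gain under 50%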;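 further: plate controls were neutral control wells for no effect and wells lacking membranes for full effect; tested at 10 µM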
CSC inhib: blocks cancer stem cells; cancer stem cell-like cells viability, luminescence; inhibition, % at 7.5 µM; actives 1.1% (n = 300,000); AID 2717;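 active means mean at 75% or more and at least half the replicates too; inconclusive means mean and replicates disagree; tested in HMLE shEcad cells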;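 further: 0% = median of negative and 100% = median of positive control wells; the first replicate is given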
eIF4H inh retest: also measured in eIF4H inh; calls as there; inhibition, %; compound at 20 µM; confirmation average;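 mean of two retest wells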
PABP FP inh retest: further read-out of PABP FP inh, marked with its call; inhibition, %; compound at 20 µM; confirmation repeats;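 mean of two retest wells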
MT1-MMP act inh RFP: also measured in MT1-MMP act inh; calls as there; RFP signal change, %; measured here: RFP expression control read;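 0 = vehicle wells; hits needed this value within 50% of zero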
Starred values were filed as active, the others as inactive; i = inactive; ? = inconclusive; . = not tested or not shown; & = joins results of further samples. Some of the compounds tested; rates above refer to the full screens.

SMILES | HIV Env fusion | PABP FP inh | eIF4H inh | Yeast UUG start | MT1-MMP act inh | MT1-MMP act inh RFP | Rce1 inhib | CSC inhib | others
COC(=O)C(N)Cc1ccc(Cl)cc1 (stereo not drawn) | -5 | . | . | -1 | 2 | 4 | . | -9
CCN(c1ccccc1)S(=O)(=O)c1nnc(NC(=O)CC(C)C)s1 | 8 | -2 | -4 | -23 | 1 | 1 | i | -7
COc1ccc2c(CC(=O)NCc3ccc4c(c3)OCO4)coc2c1 | . | -7 | 17 | -15 | 7 | 1 | i | 5
CCOC(=O)c1c(C)nc(SCC(N)=O)c(C#N)c1-c1ccccc1 | . | 3 | -3 | -8 | 11 | 3 | i | .
CCOC(=O)C1CCCN(C(=O)c2cccnc2Oc2ccccc2)CC1 (stereo not drawn) | -12 | . | . | -13 | 2 | 5 | . | .
Cc1cc(C(=O)COc2nncc3ccccc23)c(C)n1C | -10 | 14 | 22 | -7 | 3 | 9 | i | .
Clc1ccc2c(c1)c1cc(Cl)ccc1n2CN1CCOCC1 | -26 | 12 | 16 | -31 | 3 | 4 | i | 62
COc1ccc(-c2nc(N)c(C#N)c(-c3cccnc3)c2C)cc1 | 18 | 9 | -1 | -7 | 0 | 1 | i | -14
CCNC(=S)Nc1cccc(NC(=O)c2ccccc2O)c1 | -25 | 5 | -2 | -23 | 3 | -3 | i | 4
CCOc1cc(C(=O)Nc2ccccc2N2CCOCC2)ccc1OCC(=O)N1CCOCC1 | -5 | . | . | -12 | 1 | 2 | . | .
CCc1nnc(NS(=O)(=O)c2ccc(NC(=O)CCC(=O)O)cc2)s1 | 3 | -10 | 3 | 3 | -1 | 2 | i | -13
O=C(Cc1ccccc1)N/N=C/C=C/c1ccccc1[N+](=O)[O-] | -24 | 6 | -10 | 12 | 6 | -1 | i | -7
COc1ccc(/C=N/NC(=O)c2cccnc2)cc1CSc1ccccn1 | 24 | -5 | -6 | -19 | -5 | -10 | i | 66
O=C(NCCC1CCCC1)C1CCC(=O)N(CCCN2CCCC2=O)C1 (stereo not drawn) | 9 | 5 | -6 | -5 | 0 | 4 | i | 3
O=C1N/C(=C/c2cccs2)C(=O)N1Cc1ccc(Br)cc1 | -29 | 12 | -4 | . | 10 | 3 | i | -11
CCc1nc2ccc(C(=O)NC3CCN(Cc4ccccc4)CC3)cn2c1N(CC)CCOC | 3 | . | . | -13 | 0 | 3 | . | .
Cc1nc2ccccc2c(=O)n1/N=C/c1ccc2ccccc2c1O | -29 | -6 | 6 | . | -4 | -9 | i | 20
COc1ccc(Br)cc1C1Nc2cccc3cccc(c23)N1 | 1 | 61* | 102* | 7 | 5 | 4 | i | 13
CCC(NC(=O)CCc1ccccc1)c1ccccc1 (stereo not drawn) | 6 | -5 | -4 | . | 0 | 2 | i | -6
Cn1ncc(N=Cc2ccccc2O)c1C(=O)Nc1ccccc1 | . | -3 | 7 | -6 | 1 | 4 | i | -18
O=C(Nc1nc(-c2cccs2)cs1)c1ccc(S(=O)(=O)N2CCCC2)cc1 | ? | 4 | -13 | -11 | -4 | -21 | i | 33
c1ccc2c(-c3cccc4nccn34)cncc2c1 | 55* | . | . | 12 | -9 | -4 | . | .
CCc1cccc(C)c1NC(=O)CCNC(=O)c1cccc(C)c1 | -7 | -8 | -1 | -10 | 4 | 4 | i | -2
CCn1c(CNC(=O)c2cccc(C)c2)nc2ccccc21 | -4 | 6 | 2 | -7 | 4 | 3 | i | -1
N=c1c2c(-c3ccccc3)c(-c3ccccc3)n(Cc3ccco3)c2ncn1Cc1ccccc1 | . | -16 | 6 | -27 | 5 | 4 | i | 110*
COc1cc(Cl)c(C)cc1NC(=O)CSc1nnc(-c2ccccn2)n1Cc1ccco1 | -26 | -6 | -4 | -17 | 11 | 0 | i | 11
COC(=O)c1cc(C(=O)OCC(=O)Nc2ccccc2OC(F)F)cc([N+](=O)[O-])c1 | 0 | 4 | 5 | . | 10 | 8 | i | -11
COc1ccc2nc(NC(=O)c3ccc(NC(=O)C4CCCO4)cc3)sc2c1 (stereo not drawn) | -4 | 2 | 2 | -19 | 0 | -19 | i | 18
CCc1nnc(NC(=O)CSc2nc3[nH]c(=O)cc(O)c3s2)s1 | 3 | . | . | -21 | -4 | 4 | . | .
NC(=O)C1(N2CCCCC2)CCN(C(=O)c2ccc(-n3cnnn3)cc2)CC1 | . | -8 | 6 | -11 | 1 | 4 | i | 4
CC(C)(C)CC(C)(C)NC(=O)CSCC(=O)Nc1ccc2ccccc2c1 | . | 26 | 0 | 4 | -6 | -5 | i | 21
CC(=O)N/C(=C\c1ccccc1)C(=O)OCC(=O)NC1CCS(=O)(=O)C1 (stereo not drawn) | 29 | . | . | 11 | 2 | 6 | . | -1
O=C(CNC(=O)OCc1ccccc1)NCC(=O)NC(Cc1c[nH]c2ccccc12)C(=O)O (stereo not drawn) | 12 | . | . | -21 | 1 | 3 | . | .
O=C(NCc1cccs1)c1nc2c(nnn2Cc2ccc(F)cc2)c(=O)[nH]1 | -3 | 4 | -8 | 1 | -11 | -5 | i | .
CCCCNC(=O)CS(=O)Cc1nc(-c2cccc(Cl)c2)oc1C (stereo not drawn) | 28 | 2 | -1 | -14 | 3 | 1 | i | 8
CCOC(=O)Nc1ccc2c(c1)N(C(=O)CCN1CCN(CCO)CC1)c1ccccc1CC2 | . | 7 | 76 | -7 | 8 | 1 | i | -14 | eIF4H inh retest=-6;PABP FP inh retest=5
COC(=O)c1c(-c2cccnc2)csc1NC(=O)c1ccc2c(c1)OCO2 | -161 | -8 | 2 | -21 | -5 | 1 | i | 12
CC(Oc1ccc(Cl)cc1)C(=O)OCC(=O)Nc1ncc(Cl)cc1Cl (stereo not drawn) | . | 12 | 7 | . | -1 | 2 | i | 17
O=c1c2ccccc2nc2c3ccccc3c(NCCO)nn12 | -68 | -5 | 5 | -12 | 4 | 3 | i | -2
CC(=O)C1=C(O)C(=O)N(Cc2cccnc2)C1c1ccc(Cl)cc1 (stereo not drawn) | . | 3 | 0 | -18 | 1 | -3 | i | -11
CCCN1Cc2cccc(C(=O)Nc3cc(OC)cc(OC)c3)c2C1=O | . | -4 | -2 | -4 | -2 | 0 | i | -7
CC(NC(=S)Nc1ccc([N+](=O)[O-])cc1)c1ccncc1 (stereo not drawn) | -1 | -2 | -3 | . | -2 | -6 | . | -11
Cc1ccc(-c2noc(CSc3nnnn3-c3ccccc3)n2)cc1 | . | -6 | -1 | . | 4 | -3 | i | 10
CC1CCCCC1NC(=O)CCCc1nc2ccccc2c(=O)[nH]1 (stereo not drawn) | . | -7 | 4 | -9 | 6 | 3 | i | .
O=C(c1cccs1)N1CCN(Cc2ccc3c(c2)OCO3)CC1 | . | 0 | 0 | 3 | -3 | -1 | i | -17
O=C(OCc1cccc([N+](=O)[O-])c1)c1ccc[nH]c1=O | -21 | 7 | -2 | -10 | -2 | 1 | i | -5
C[C@@H]1CCCCO[C@@H](CN(C)S(=O)(=O)c2ccccc2)[C@@H](C)CN([C@H](C)CO)C(=O)c2cc(NS(=O)(=O)c3ccc(F)cc3)ccc2O1 | -8 | . | . | 9&-16 | -2 | -5 | . | .
COc1ccc(CCn2c(Br)nc3c2c(=O)[nH]c(=O)n3C)cc1 | -25 | 6 | 7 | . | -7 | -14 | i | 70
COc1ccccc1-n1nnnc1SCC(=O)Nc1ccccc1 | -1 | -8 | -6 | 1 | 3 | -3 | i | -8
Cc1ccc(CNC(=O)c2nnc(Cc3ccc(Cl)cc3)o2)cc1 | 10 | -3 | 9 | -8 | 1 | 2 | i | -15
Cc1cc(=O)oc2cc(OCC(=O)OCC(=O)N3CCc4ccccc43)ccc12 | . | 1 | 3 | . | 1 | 1 | i | -5
COc1cccc(N2CC(NC(=O)C(=O)c3c(C)[nH]c4ccccc34)CC2=O)c1 (stereo not drawn) | 10 | . | . | . | 8 | 7 | i | .
Cc1ccc(C(C)NC(=O)C23CC4CC(CC(C4)C2)C3)cc1 (stereo not drawn) | -3 | -5 | -2 | . | 1 | -2 | i | 4
O=C(Cn1c(=O)c(=O)n(Cc2ccccc2)c2ccc(Cl)cc21)Nc1cc(F)ccc1F | . | 0 | -3 | . | . | . | i | -4
O=C1CC(c2ccccc2F)c2c(c3ccccc3[nH]c2=O)O1 (stereo not drawn) | -34 | -9 | 0 | . | 0 | -1 | i | -18
Cc1ccc(OCCSc2nnc(-c3cccs3)n2C)cc1 | -2 | -16 | -10 | -10 | -6 | -1 | i | -4
COc1ccc(OCC(=O)N/N=C/c2cccn2-c2cccc(C(=O)O)c2)cc1 | -28 | . | . | 1 | 0 | -4 | . | .
COc1ccccc1N1CCN(C(c2cccs2)C(C)NC(=O)c2ccncc2)CC1 (stereo not drawn) | 3 | -4 | -4 | -20 | -2 | -1 | i | 4
Cc1ccc(-c2cc(C(=O)OC3CCOC3=O)c3ccccc3n2)c(C)c1 (stereo not drawn) | 1 | -17 | -7 | -5 | 5 | 3 | i | 6
COC(=O)c1ccc(-c2nc3cc(Cl)c(N)cc3s2)cc1 | . | 31 | -4 | -16 | 1 | 1 | i | -11

Arranged by number of heavy atoms (ascending): part of the list above
SMILES | HIV Env fusion | PABP FP inh | eIF4H inh | Yeast UUG start | MT1-MMP act inh | MT1-MMP act inh RFP | Rce1 inhib | CSC inhib | others
Cc1ccc(C(C)NC(=O)C23CC4CC(CC(C4)C2)C3)cc1 (stereo not drawn) | -3 | -5 | -2 | . | 1 | -2 | i | 4
COc1ccccc1-n1nnnc1SCC(=O)Nc1ccccc1 | -1 | -8 | -6 | 1 | 3 | -3 | i | -8
Cc1cc(=O)oc2cc(OCC(=O)OCC(=O)N3CCc4ccccc43)ccc12 | . | 1 | 3 | . | 1 | 1 | i | -5

(list continues)
SMILES | HIV Env fusion | PABP FP inh | eIF4H inh | Yeast UUG start | MT1-MMP act inh | MT1-MMP act inh RFP | Rce1 inhib | CSC inhib | others
CCC1CCCCN1C(=O)COC(=O)c1ccc(S(=O)(=O)N2CCOCC2)cc1 (stereo not drawn) | . | 2 | -10 | -27 | 0 | 3 | i | .
Cc1ccc(S(=O)(=O)Nc2ccc(S(=O)(=O)N3CCCC3)cc2)cc1 | . | 0 | -3 | 1 | -6 | 1 | i | -5
CC(C)Oc1cccc(-c2cc(C(=O)N3CCN(c4ncccn4)CC3)c3ccccc3n2)c1 | -28 | 7 | 3 | -12 | -14 | -12 | i | 40
O=C(O)CC(NC(=O)Cc1ccc(Cl)cc1)c1ccco1 (stereo not drawn) | 14 | -14 | -4 | . | . | . | . | -8
CCOC(=O)c1ccc(S(=O)(=O)N2CCN(C(=O)c3nn(C)c(=O)c4ccccc34)CC2)cc1 | -50 | -1 | 2 | . | -4 | -7 | i | -2
Cc1cc(-c2ccc(S(=O)(=O)N3CCN(c4ccc(F)cc4)CC3)s2)on1 | 6 | -1 | -2 | -17 | 3 | -3 | i | -1
Cc1ccc(S(=O)(=O)N2C[C@H]3N(C(=O)OC(C)C)N(C(=O)OC(C)C)C[C@H](OC(=O)Nc4cccs4)[C@@]3(O)C2)cc1 | -103 | . | . | 5 | 0 | 3 | . | .
CC(C)CC(=O)NC(=S)Nc1cccc2nsnc12 | 17 | -7 | 4 | -11 | -21 | -23 | i | .
O=C(CCC1CCCCC1)Nc1ccc(C(=O)c2ccncc2)cc1 | 7 | 2 | 2 | -15 | 3 | 1 | i | 1

Screens (PubChem)
